Screens (PubChem BioAssay)
ClpP mod = qHTS Assay for Activators of ClpP | Potency, µM (series often up to 57.5 µM), for inactives: at the highest dose activity change, negative = active | 1.9% of 340,000 active | ATP-dependent Clp protease proteolytic subunit (Bacillus subtilis (strain 168)), P80244 | purified B. subtilis ClpP, FRET peptide cleavage, 20 min; active = well fitted falling curve with a large enough effect; inconclusive = small, poorly fitted or top-dose-only effect; inactive = no such curve, though single readings can be large or run the other way; further: potency means the concentration at half of the fitted maximal effect; the source files actives as falling curves though it sought activators and does not explain the sign; nearly all actives have a fitted effect of over 65% in size; many hits overshoot -100%
Target sequence (P80244 whole entry, looked up): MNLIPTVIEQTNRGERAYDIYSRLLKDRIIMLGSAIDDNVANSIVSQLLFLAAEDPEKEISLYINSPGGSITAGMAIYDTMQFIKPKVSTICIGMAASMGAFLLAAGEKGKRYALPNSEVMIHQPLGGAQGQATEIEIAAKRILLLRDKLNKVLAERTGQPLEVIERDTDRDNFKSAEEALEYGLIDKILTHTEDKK
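ClpP 10 microg/mL final, pH 8 Tris/KCl buffer with BSA, glycerol, Tween-20; compound pinned in; FRET-FV substrate; RT 20 min; Ex320/Em430; ΔFRET vs ADEP 5.8 microM, DMSO, no enzyme.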
gsp antagonist = qHTS for Antagonists of gsp, the Etiologic Mutation Responsible for Fibrous Dysplasia/McCune-Albright Syndrome: qHTS; Potency, µM (series often up to 76.9 µM), for inactives: top-dose activity change, negative = inhibition, hits mostly inhibitors; 0.4% of 340,000 active; gsp-mutant cells, cAMP HTRF, 30 min; control for the full effect not named in the record; active = falling curve of any shape with a large fitted effect; inconclusive = falling curve, mostly with a smaller effect; inactive = flat or rising curve; cell line not stated here;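 further: intracellular cAMP measured with PDE inhibitor Ro 20-1724 present during compound exposure; potency means the concentration at half of the fitted maximal effect; on the % scale 0 is the no-effect control and ±100 the full control effect; nearly all actives have a fitted effect of over 65% in size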
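G418-selected cells were plated in DMEM/10% FBS for 16-24 h at 37C, then treated with compounds plus the PDE inhibitor […] (300 uM solution added) for 30 min at 37C. Intracellular cAMP was measured by HTRF after 30 min lysis at room temperature.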
TRPV1 potentiator = HTS Assay for Compounds that Act as Potentiators of the Vanilloid Receptor 1; Transient receptor potential cation channel subfamily V member 1 (Homo sapiens), Q8NER1; TRPV1-expressing cells, Fluo-8 calcium influx, capsaicin EC20 potentiation; host cell line not named in the record; control for the full effect not named in the record; potentiation, % at 8.33 µM; 0.02% of 320,000 active; active means potentiation above 80%; inconclusive means 30% to 80%; inactive means below 30%; further: 0% is about no effect
Target sequence (Q8NER1 whole entry, looked up): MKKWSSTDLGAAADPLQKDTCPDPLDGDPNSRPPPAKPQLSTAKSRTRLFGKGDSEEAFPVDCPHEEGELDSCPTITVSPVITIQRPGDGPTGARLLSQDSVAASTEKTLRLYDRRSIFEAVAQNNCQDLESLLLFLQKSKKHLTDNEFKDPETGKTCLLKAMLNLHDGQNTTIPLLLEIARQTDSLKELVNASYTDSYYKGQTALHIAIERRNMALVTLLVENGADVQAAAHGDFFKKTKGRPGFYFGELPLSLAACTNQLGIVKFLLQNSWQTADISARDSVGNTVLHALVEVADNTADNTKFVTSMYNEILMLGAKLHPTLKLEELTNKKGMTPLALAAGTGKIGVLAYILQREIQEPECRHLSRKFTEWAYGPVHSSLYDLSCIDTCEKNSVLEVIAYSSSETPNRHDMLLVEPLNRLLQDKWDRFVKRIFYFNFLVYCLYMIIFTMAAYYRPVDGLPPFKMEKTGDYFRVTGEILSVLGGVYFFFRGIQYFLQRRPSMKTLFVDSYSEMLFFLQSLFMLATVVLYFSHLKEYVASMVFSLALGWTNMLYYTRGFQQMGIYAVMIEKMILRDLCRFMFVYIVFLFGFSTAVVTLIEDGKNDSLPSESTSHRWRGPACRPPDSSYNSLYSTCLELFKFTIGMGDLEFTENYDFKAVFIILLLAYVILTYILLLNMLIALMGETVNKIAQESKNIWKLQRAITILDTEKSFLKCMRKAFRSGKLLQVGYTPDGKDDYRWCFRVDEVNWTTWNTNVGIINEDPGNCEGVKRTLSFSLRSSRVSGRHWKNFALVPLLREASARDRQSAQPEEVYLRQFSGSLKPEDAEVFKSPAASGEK
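TRPV1-expressing cells were cultured overnight at 35.5C and loaded with Fluo-8 calcium dye for 40 to 90 min at room temperature. After a 10 s baseline, compound was added and calcium influx was read kinetically for 3 min (ex 480/em 520 nm).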
gsp ag = qHTS for Agonist of gsp, the Etiologic Mutation Responsible for Fibrous Dysplasia/McCune-Albright Syndrome: qHTS; gsp mutant cells, cAMP HTRF, 30 min; control for the full effect not named in the record; 0.13% of 340,000 active; Potency, µM (doses to about 76.9 µM), for inactives: top-dose activation (cAMP increase), usual class: activators; AID 624287, 2012; active = well fitted activation curve with a large enough effect; inconclusive = small, poorly fitted or top-dose-only effect, or another doubt; inactive = no such curve, though single readings can be large or run the other way; cell line not stated here;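 further: phosphodiesterase inhibitor Ro 20-1724 added with compounds to block cAMP breakdown; potency means the concentration at half of the fitted maximal effect; nearly all actives have a fitted effect of over 60% in size; about a fifth of the inactives were tested at one dose only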
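Cells stably selected in G418 were plated at 2000/well, grown 16-24 hr, then given compounds in DMSO with the PDE inhibitor […] (300 uM solution added) for 30 min at 37C; cAMP was read by HTRF.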
Sfp inh = qHTS Assay for Inhibitors of Bacillus subtilis Sfp phosphopantetheinyl transferase (PPTase); Biochemical Sfp PPTase activity, qHTS; 3.5% of 310,000 active; 4'-phosphopantetheinyl transferase ffp (Bacillus subtilis), Q9F4F7; Potency, µM, inactives show max response, negative = inhibition, usual class: inhibitors; active means well fitted inhibition curve with a large enough effect; inconclusive means small, poorly fitted or top-dose-only effect, or another doubt; inactive means no such curve, though single readings can be large or run the other way;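 further: the enzyme is Sfp with the accession as filed and its product quenches rhodamine fluorescence; potency means the concentration at half of the fitted maximal effect; 0% = enzyme reaction without inhibitor and -100% = no enzyme wells; top concentration of the series not given in the record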
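Step 1, compound plus 15 nM Sfp-PPTase, 15 min, room temperature. Step 2, add rhodamine-CoA (5 uM) and BHQ-2-YbbR (12.5 uM). Step 3, read 525/598 nm fluorescence at 0 and 30 min.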
Menin MLL FP FL = qHTS Assay for Inhibitors Targeting the Menin-MLL Interaction in MLL Related Leukemias: Competition With Fluorescein Labeled MLL-derived Peptide; AID 1766, 2009; 290,000 tested, under 10 active; Fluorescence polarization, fluorescein-MLL peptide displacement from menin; FP activity change, % at 61.4 µM; inconclusive = falling polarisation curve, or a change in total fluorescence; inactive = total fluorescence flat and polarisation flat or rising; no compound was filed as active; the % refers to the polarisation; negative = inhibition;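 further: % of control where 0% means no effect; inhibitors lower the polarisation; unlabelled MLL peptide was the positive control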
CtBP-E1A blk = qHTS Assay for Inhibitors of the CtBP/E1A Interaction. AlphaScreen GST-E1A/His-CtBP binding, 1536-well; stronger effect = lower value; control for the full effect not named in the record. 0.49% of 340,000 active. CtBP / adenovirus E1A interaction (AlphaScreen). activity change, % (no concentration beside the values); in the data active means activity change below about -65%; inconclusive means about -30% to -65%; inactive means above about -30%; further: on the % scale 0 is the no-effect control and ±100 the full control effect; compound concentration not given in the record
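Steps: dispense buffer (Tris pH 8.0, NaCl 300 mM, TCEP 1 mM, BSA, Tween 20); add 5X protein mix (GST-E1A, His-CtBP, 125 nM each); pin 23 nL compound; 2 h at 37 °C, dark; add 5X beads (50 ug/mL); 1 h; read.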
Starred values were filed as active, the others as inactive; u = inconclusive; x = not tested or not shown; & = joins results of further samples; [ ] = remark or other dose.

SMILES | ClpP mod | gsp antagonist | TRPV1 potentiator | gsp ag | Sfp inh | Menin MLL FP FL | CtBP-E1A blk
CC(C)(C)C(=O)Nc1c2c(nc3c1CCC3)CCCC2 | -1.6% | -4%[15.4 µM] | -6 | -33%[inhibitor] | -9% | -0.1 | -4
O=C(Cn1cnc(S(=O)(=O)N2CCCC2)c1)Nc1ccccc1 | 0.3%&-1.8% | 13% | 20 | u | 20% | x | 0
O=C1c2ccccc2C(=O)N1CCCCSc1nnc2c(Cl)cc(Cl)cn12 | -17% | -4% | 12 | 23% | 9% | -1.2 | -10
COc1ccccc1C(=O)Nc1ccc(Oc2ncnc3sc(-c4ccccc4)cc23)cc1 | 10µM* | -9% | -2 | -24% | 2% | -0.2 | -9
O=C(CC1(O)C(=O)N(Cc2ccc3c(c2)OCO3)c2ccccc21)c1ccccc1 (stereo not given) | -0.8% | -1% | 18 | 28% | 5% | 0.1 | -7
Cc1cccc(-c2n[nH]c(=S)n2/N=C/C=C/c2ccco2)c1 | 3.5% | -17% | -15 | -18% | u | 11 | x
Cc1ccc(NC(=O)Cn2ncc3ccccc32)c(Cl)c1 | 1.4% | 1% | 13 | -20% | 10% | 2.9 | 7
CCn1c2ccccc2c2cc([N+](=O)[O-])ccc21 | x | -13% | -3 | 4%[15.4 µM] | 5% | -1.0 | -24
O=C(O)C1CCCN1C(=O)Oc1ccccc1 (stereo not given) | -0.6% | 8% | 2 | -32% | 11% | -1.6 | 8
CCOc1ccc(-c2nonc2NC(=O)c2ccco2)cc1 | -0.4%&-1.4% | -1% | 6 | u | 9% | x | 5
O=C(CN1C(=O)NC2(CCCCC2)C1=O)N1CCN(S(=O)(=O)c2ccc(F)cc2)CC1 | -0.1% | 6% | 9 | -2%[15.4 µM] | x | x | 7
Nc1ccc2nc(-c3cccs3)[nH]c2c1 | 10µM* | 15% | -30 | u | 4% | 3.0 | 6
CCCc1c(C(=O)N/N=C/C(C)=C/c2ccco2)nnn1-c1nonc1N | -2.4% | -17% | -5 | -27% | u | x | x
CN(NS(=O)(=O)c1ccc(Br)cc1)c1nc(C(F)(F)F)nc2ccccc12 | x | -17% | -2 | 6% | 24% | 5.5 | 10
Cc1ccc(NC(=O)NNC(=O)c2cc3ccccc3cc2O)c(C)c1 | 2.4% | -3% | 2 | -21% | 18% | 17 | 0
CCOC(=O)CC(=O)Nc1ccc(Br)cc1C(=O)O | -21% | -1% | 12 | -4% | 2% | -1.9 | 9
COc1ccc(Cl)cc1NC(=O)CCN1C(=O)C2C3C=CC(C4CC34)C2C1=O (stereo not given) | 0.3% | 6% | 3 | -2% | 7% | 1.6 | 5
CCCn1c(=O)c2ccccc2n2c(SCC(=O)c3ccc(F)cc3)nnc12 | x | x | 11 | x | -11% | 1.8 | x
CN(C)S(=O)(=O)c1cccc(C(=O)NC2CCCc3ccccc32)c1 (stereo not given) | -2.3% | -2% | -2 | 7%[15.4 µM] | 14% | 1.8 | -5
CCOC(=O)c1c(C)cc(O)cc1O | -0.3% | 11% | x | x | -2% | 2.0 | 5
C=C(CN(C)C)C(=O)c1cc(C)ccc1C | 0.9% | u | x | u | x | x | 9
Cc1cc(N2C(=O)C(=O)/C(=C(/O)c3ccc(F)cc3)C2c2ccc(F)cc2)no1 (stereo not given) | 2.2% | -37% | 12 | u | 11% | 1.4 | -5
Cc1ccc2c(c1)C(C)CC(C)(C)N2C(=O)NC1CCCCC1 (stereo not given) | 1.6% | -1% | -7 | -2% | 9% | -1.7 | 8
Cc1ccc(S(=O)(=O)NC2=NCN(C3CCCCC3)CN2)cc1 | 0.7% | 16% | 3 | 2% | 9% | -1.6 | 1
Cc1ccc(NC(=O)CN(C)C(=O)CSc2nc3ccccc3c(=O)n2Cc2ccco2)cc1 | -0.7% | -26% | 11 | -4% | 8% | 1.9 | -4

(more compounds)
SMILES | ClpP mod | gsp antagonist | TRPV1 potentiator | gsp ag | Sfp inh | Menin MLL FP FL | CtBP-E1A blk
C/C(=N\NC(=O)C(N)=O)c1ccc(OC(F)F)cc1 | x | 9% | 20 | -28% | 7% | -0.7 | -12
O=C(CSc1nnc(NC(=O)c2ccccc2F)s1)NCc1ccco1 | -0.9% | -11% | 3 | -29% | -8% | x | -2
CCOc1ccc(C2OC(=O)Cc3cc(OC)c(OC)cc32)cc1 (stereo not given) | -0.6% | -9% | 0 | 5% | 11% | 2.2 | -1
COc1ccc(CCN2C(=O)C(O)=C(C(C)=O)C2c2ccccc2OC)cc1OC (stereo not given) | -3.1% | -13% | -6 | -27% | 4% | -0.4 | -4
COC(=O)c1ccc(OC)c(Cn2c(=O)n(C)c(=O)c3sccc32)c1 | -0.5% | -19% | -12 | -19% | 23% | -2.9 | 7
Cc1cc(C)c(S(=O)(=O)N2CCN(C(=O)CC(C)n3nc(C)nc3C)CC2)c(C)c1 (stereo not given) | -3.0% | x | x | 1% | x | x | 4
COC(=O)c1cc(S(=O)(=O)NCc2cccs2)c[nH]1 | 1.1% | 10% | 5 | 2% | 17% | 1.7 | x
CSCCC(Nc1ccc(S(=O)(=O)N2CCOCC2)cc1[N+](=O)[O-])C(=O)OCC(=O)NCC(C)C (stereo not given) | 1.3% | -8% | 8 | 16% | 12% | 3.4 | 5
COCCN(C(=O)CSc1nnc(-c2ccc(C)cc2)n1N)c1c(N)n(Cc2ccccc2)c(=O)[nH]c1=O | -2.7% | 6% | 6 | -24% | 0% | x | -3
O=C(Nc1ccc(C(=O)N2CCCc3ccccc32)cc1)c1cccs1 | x | -21% | 1 | -36% | -9% | 0.3 | -8
O=C1CCCC2=C1C(c1ccc(Br)cc1)c1c([nH]c(=S)[nH]c1=O)N2 (stereo not given) | -3.2% | -21% | 17 | -15% | -94% | 7.5 | 0
CC(=O)Nc1ccc(S(=O)(=O)NCCc2ccccn2)cc1 | 0.0% | -5% | 7 | 0%[15.4 µM] | 16% | -1.8 | -6
Cc1ccc2nc3ccc(N4CCN(C)CC4)nn3c(=O)c2c1 | -7.5% | 9% | -4 | u | 26% | 0.8 | 3
Cc1cc(C(=O)Nc2ccc(F)cc2C)cs1 | 1.5% | 3% | 8 | -4% | 18% | x | 3
CN(C)c1ccc(P(=O)(OC2CCCCC2)C(O)c2ccccn2)cc1 (stereo not given) | -1.2% | -17% | 2 | -11% | u | -1.9 | -3
S=c1nc2ccccc2c2nc(-c3ccccc3)[nH]n12 | -1.9% | -16% | 8 | -7%[15.4 µM] | -11% | 1.0 | -12
C=C(C)C1CC=C(C)/C(=N/NC(=S)Nc2ccccc2)C1 (stereo not given) | -4.1% | -31% | -4 | -18% | -26% | 3.2 | -12
CCOc1ccccc1CNC(c1ccccc1)c1ccccc1 | 1.5% | 4% | 9 | -5% | -7% | -2.3 | 44
COc1ccc([N+](=O)[O-])c(OC)c1C(=O)NC(=O)Nc1nc(C)nc(C)n1 | -2.0% | 6% | 11 | u | 28% | x | 1
C=CCOc1ccc(/C=N/n2cncn2)cc1OC | -14% | 7% | 0 | -32%[inhibitor] | 24% | 1.8 | -1
O=C(c1ccc2ccccc2n1)N1CCN(c2ccccc2)CC1 | -5.5% | 9% | -21 | -20% | 20% | 1.4 | -1
O=C(O)C1Cc2[nH]cnc2C(c2ccccc2O)N1 (stereo not given) | 28µM* | -8% | 4 | -18% | 79µM* | 8.3 | u
CC(C)OC(=O)Cn1nnc2c(cnn2-c2ccccc2)c1=O | 0.5% | 5% | -26 | 3% | 9% | -1.6 | 7
Cc1nnc(SCC(=O)Nc2sccc2C(N)=O)s1 | -2.4% | 2% | 1 | -6% | x | x | -11
O=C(C1=C[C@@H](c2ccc(Br)cc2)C[C@@H](OCc2ccc(CO)cc2)O1)N1CCOCC1 | -1.1% | 4% | -15 | -13% | 8% | -1.4 | 2

Next part:
SMILES | ClpP mod | gsp antagonist | TRPV1 potentiator | gsp ag | Sfp inh | Menin MLL FP FL | CtBP-E1A blk
O=C(c1nc2ccccn2c1CN1CCCC(c2nc3ccccc3o2)C1)N1CCCC1 (stereo not given) | -4.7% | -7% | u | -14% | 10% | 0.3 | x
Cc1cc(C)cc(Oc2ccccc2CO)c1 | x | x | 2 | x | 9% | -1.1 | x
CCN(CC)c1ccc(C=Nc2cc(C)ccc2C)c(O)c1 | -2.9% | 8% | -14 | 10% | -7% | 3.4 | -11
CCC(SC1=NCCS1)C(=O)Nc1nnc(-c2ccccc2OC)s1 (stereo not given) | -20% | -9% | 15 | u | 8% | 0.1 | -14
CCOC(=O)c1c(N2CCCCC2)c2ccccc2[nH]c1=O | 0.3% | -3% | u | 3% | -25% | -3.2 | 0
CCOc1cccc(=O)c2c(C)n(Cc3ccco3)c(C)c12 | -1.0% | 12% | -19 | -37%[inhibitor] | 40µM* | u | 3
CCC(CC)NC(=O)c1cccc(Br)c1 | 0.2% | 7% | -1 | -6% | 3% | -1.5 | -7
COc1ccc(/C=N/NC(=O)CC#N)cc1Oc1nc(Cl)ncc1F | 1.6% | 2% | 0 | -9% | 11% | -0.6 | x

Four compounds out of the list above, ordered by the value under gsp antagonist, lowest first.
Structure,gsp antagonist
CCOC(=O)c1c(N2CCCCC2)c2ccccc2[nH]c1=O,-3%
COc1ccc(/C=N/NC(=O)CC#N)cc1Oc1nc(Cl)ncc1F,2%
CCC(CC)NC(=O)c1cccc(Br)c1,7%
CCN(CC)c1ccc(C=Nc2cc(C)ccc2C)c(O)c1,8%
